High-throughput results: PubChem, National Center for Advancing Translational Sciences (NCATS)
Six1-Eya2 inh – blocks human Six1 binding to Eya2; AlphaScreen GST-Six1/His-Eya2 binding, biochemical; active compounds read low; control for the full effect not named in the record; activity change, % (test concentration not listed); actives 0.56% (n = 360,000); AID 651725; in the data active = activity change below about -65%; inconclusive = about -30% to -65%; inactive = above about -30%; further: on the % scale 0 is the no-effect control and ±100 the full control effect
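Homogeneous AlphaScreen proximity assay pairing GST-Six1 with His-tagged Eya2 (added as 5X mix: 250 nM and 500 nM) in 50 mM Tris pH 8.0, 300 mM NaCl, 1 mM TCEP. Glutathione donor and nickel acceptor beads; 1 h, 37 °C, dark.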
gsp ag – activates gsp, the McCune-Albright syndrome mutation; Potency, µM (titrated, usually from 76.9 µM), without a hit: top-dose activation (cAMP increase), hits mostly activators; gsp mutant cells, cAMP HTRF, 30 min; control for the full effect not named in the record; actives 0.13% (n = 340,000); active = well fitted activation curve with a large enough effect; inconclusive = small, poorly fitted or top-dose-only effect, or another doubt; inactive = no such curve, though single readings can be large or run the other way; cell line not stated here;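 further: phosphodiesterase inhibitor Ro 20-1724 added with compounds to block cAMP breakdown; potency means the concentration at half of the fitted maximal effect; nearly all actives have a fitted effect of over 60% in size; about a fifth of the inactives were tested at one dose only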
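Cells stably selected in G418 were plated at 2000/well, grown 16-24 hr, then given compounds in DMSO with the PDE inhibitor […] (300 uM solution added) for 30 min at 37C; cAMP was read by HTRF.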
gsp antag – gsp mutant antagonism; Potency, µM (top dose mostly 76.9 µM), for the others: at the highest dose activity change, negative = inhibition, most hits filed as inhibitors; AID 624288; gsp-mutant cells, cAMP HTRF, 30 min; control for the full effect not named in the record; actives 0.4% (n = 340,000); active = falling curve of any shape with a large fitted effect; inconclusive = falling curve, mostly with a smaller effect; inactive = flat or rising curve; cell line not stated here;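 further: intracellular cAMP measured with PDE inhibitor Ro 20-1724 present during compound exposure; potency means the concentration at half of the fitted maximal effect; on the % scale 0 is the no-effect control and ±100 the full control effect; nearly all actives have a fitted effect of over 65% in size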
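HTRF cAMP measurement after 30 min RT detection following 30 min, 37C compound treatment alongside […] (added as 300 uM solution) in G418-selected cells seeded at 2000/well and grown 16–24 h.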
CtBP-E1A inh – CtBP/E1A binding inhibition; AlphaScreen GST-E1A/His-CtBP binding, 1536-well; active compounds read low; control for the full effect not named in the record; activity change, % (test concentration not listed); actives 0.49% (n = 340,000); in the data active means activity change below about -65%; inconclusive means about -30% to -65%; inactive means above about -30%; further: on the % scale 0 is the no-effect control and ±100 the full control effect
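AlphaScreen with 125 nM GST-E1A and 125 nM His-CtBP (5X stocks) in Tris pH 8.0, 300 mM NaCl, BSA, Tween 20, TCEP. Compounds preincubated 2 h at 37 deg C, then glutathione donor/nickel acceptor beads added for 1 h at 37 deg C in dark.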
D2 PAM – positive allosteric modulators of human D2 dopamine receptor; P14416; DiscoveRx D2 beta-arrestin cells, luminescence, 90 min; 100% = 57 uM dopamine signal; potentiation, % (test concentration not listed); actives 0.23% (n = 360,000); active = potentiation of 50% or more; inconclusive = 30% to 50%; inactive = 30% or less;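 further: compound concentration not given in the record; tested on top of an EC20 dose of dopamine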
Target sequence (P14416 whole entry, looked up): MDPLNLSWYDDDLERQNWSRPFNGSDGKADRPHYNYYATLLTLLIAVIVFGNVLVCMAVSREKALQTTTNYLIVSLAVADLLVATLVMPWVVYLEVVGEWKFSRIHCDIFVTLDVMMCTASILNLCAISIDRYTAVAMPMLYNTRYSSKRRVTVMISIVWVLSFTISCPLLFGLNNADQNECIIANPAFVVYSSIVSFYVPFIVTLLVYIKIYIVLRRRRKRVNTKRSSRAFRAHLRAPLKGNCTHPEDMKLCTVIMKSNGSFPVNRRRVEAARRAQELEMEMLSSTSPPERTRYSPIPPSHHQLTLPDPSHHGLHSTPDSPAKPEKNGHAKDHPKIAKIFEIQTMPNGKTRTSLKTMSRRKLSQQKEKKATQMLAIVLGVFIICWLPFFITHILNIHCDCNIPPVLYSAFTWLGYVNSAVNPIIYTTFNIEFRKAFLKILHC
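PathHunter beta-arrestin assay in DiscoveRx D2 cells. Compounds were added with an EC20 of dopamine (50 nM final) for 90 min at 37 deg C. Luminescence was read 1 h after detection reagent, with 57 uM dopamine as the EC100 control.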
D2 agonist – activates the human D2 dopamine receptor; P14416; DiscoveRx PathHunter D2 beta-arrestin, luminescence, 90 min; 100% = 57 uM dopamine signal; activation, % (test concentration not listed); actives 0.084% (n = 360,000); AID 624465; in the data active = activation above about 40%; inconclusive = about 15% to 40%; inactive = below about 15%; further: compound concentration not given in the record; the text of the record calls up to 30% inactive
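DiscoveRx PathHunter D2 beta-arrestin cells (2,100/well) attached overnight, then compound-stimulated 90 min at 37 C in HBSS/10 mM HEPES/0.1% Tween-20 buffer; beta-galactosidase complementation read by luminescence after 1 h at ambient temperature. Dopamine 57 uM final (EC100) as control.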
Numbers without * were called inactive; u = inconclusive; x = not tested or not shown; [ ] = another dose, or the depositor's remark.

Structure	D2 agonist	Six1-Eya2 inh	gsp ag	CtBP-E1A inh	gsp antag	D2 PAM
COc1ccc(OC)c(N(CC(=O)Nc2ccccc2C(=O)NCc2ccco2)S(C)(=O)=O)c1	-3.3	-3	1%	-5	-3%	-16
CCC(C)Sc1nc2c(c(=O)[nH]c(=O)n2C)n1Cc1ccccc1Cl (stereo not drawn)	-0.4	-7	-10%	1	-4%	-2
CCOC(=O)N1CCN(C(=O)c2ccc(N(Cc3ccccc3Cl)S(C)(=O)=O)cc2)CC1	u	0	u	4	-6%	8
O=C(CCNC(=O)c1ccc(Cl)cc1)NCCCN1CCOCC1	-2.9	-1	-29%	x	1%	-1
O=C(CSc1ccc2nnc(-c3ccccn3)n2n1)N1CCN(c2ccccc2)CC1	-3.4	u	u	u	-5%	-3
CCOC(=O)c1cc2c3ccccc3n(CC)c2nc1N	-6.1	9	-2%	-12	1%	-1
CCC(=O)Oc1ccc2c(c1)O/C(=C\c1ccco1)C2=O	-0.4	5	24%	6	-13%	-1
O=C(O)c1cc2cc(OCc3ccccc3)ccc2[nH]1	-3.8	-4	-57%[inhibitor]	4	-8%	-19
COc1ccc(OCC(=O)Nc2ccc3c(c2)OCO3)cc1	-1.5	-2	4%[15.4 µM]	24	-12%	6
NC1CCCCC1N=Cc1c(O)n(CCc2ccc(F)cc2)c(=O)[nH]c1=O (stereo not drawn)	0.0	-2	41%	-1	-10%	0

Next section
Structure	D2 agonist	Six1-Eya2 inh	gsp ag	CtBP-E1A inh	gsp antag	D2 PAM
O=C(NCCc1ccccc1)c1ccc2nc3cc(Cl)ccc3c(=O)n2c1	-0.7	-1	u	2	-1%	2
COc1ccc(S(=O)(=O)NC2CC(=O)N(c3ccc(C)c(C)c3)C2)cc1C (stereo not drawn)	-6.5	-5	21%	3	u	-32
COc1ccccc1CCNC(=O)c1cccc(S(=O)(=O)NCc2ccccc2)c1	1.0	-4	-9%	9	8%	11
C[N+](C)(C)CC(=O)N/N=C/c1c2ccccc2cc2ccccc12	-1.7	-10	u	-21	u	-12
O=C1CC(NCCN2CCOCC2)C(=O)N1Cc1ccc(N2CCCC2=O)cc1 (stereo not drawn)	-0.6	4	2%	-5	14%	0
O=C(COC(=O)CCS(=O)(=O)c1ccccc1)Nc1cc(S(=O)(=O)N2CCCCC2)ccc1Cl	-3.4	2	-12%[15.4 µM]	5	-11%	-6
Cc1noc(C)c1COc1ccc(CC(=O)NC2CCCCCC2)cc1	-1.0	15	-5%	-14	-1%	-3
COc1ccc(/C=C/c2nc(N)nc(-c3ccccc3O)n2)cc1	-1.7	1	8%[15.4 µM]	10	-12%	5
COc1cc(OC)cc(Oc2ccc(S(=O)(=O)N3CCCCC3)cc2[N+](=O)[O-])c1	-0.8	-26	28%[15.4 µM]	-6	-11%	1
Cn1c(=O)c2c(nc(NN=C3CCCCC3)n2C)n(C)c1=O	-3.4	-18	-2%[15.4 µM]	-21	-27%	-7

Next structures:
Structure	D2 agonist	Six1-Eya2 inh	gsp ag	CtBP-E1A inh	gsp antag	D2 PAM
CCCC(=O)Nc1cccc(-c2nc3ccccc3c(=O)o2)c1	10	u	14%	u	-4%	23
COc1ccc(CCNc2nc(N3CCOCC3)nc(N3CCOCC3)n2)cc1OC	-4.2	-1	4%	2	10%	-16
CC(C)(C)c1ccc2c(c1)N(CC(=O)O)C(=O)CO2	-1.4	2	25%	1	-7%	5
COc1ccc(C(=O)C2CCCN(C(=O)c3ccnn3C)C2)cc1OC (stereo not drawn)	-4.0	0	25%	3	0%	-10
C/C(=N\NC(=O)c1cc(C)oc1C)c1ccc(C)c([N+](=O)[O-])c1	-3.4	-3	26%	3	10%	-3
CCN(CC)S(=O)(=O)c1ccc2c(c1)c(=O)c(C(=O)NCCN(C)CCc1ccccc1)cn2C	0.0	1	0%	6	5%	-15
COc1ccc2cc([C@H](C)C(=O)OCc3cn(CC(=O)c4ccc(O)cc4)nn3)ccc2c1	-4.8	-3	x	-7	-13%	-12
O=c1[nH]nc(CNc2ccc(C(F)(F)F)cc2)c2ccccc12	5.7	15	-7%	x	0%	1
CCOC(=O)c1oc2ccc3c(c2c1C)C(=O)CC1(CCN(C(=O)OCC)CC1)O3	0.1	1	-43%[inhibitor]	3	-14%	0
COc1ccc(OC)c(C2C(C(=O)Nc3ccccc3OC)=C(C)Nc3nc(CCCO)nn32)c1 (stereo not drawn)	3.0	16	7%	0	-1%	-2

Profiles, looked up by structure:
`COc1ccc(C(=O)C2CCCN(C(=O)c3ccnn3C)C2)cc1OC` (stereo not drawn) is listed as D2 agonist = -4.0; Six1-Eya2 inh = 0; gsp ag = 25%; CtBP-E1A inh = 3; gsp antag = 0%; D2 PAM = -10
`C/C(=N\NC(=O)c1cc(C)oc1C)c1ccc(C)c([N+](=O)[O-])c1` is listed as D2 agonist = -3.4; Six1-Eya2 inh = -3; gsp ag = 26%; CtBP-E1A inh = 3; gsp antag = 10%; D2 PAM = -3

(cont.)
Structure	D2 agonist	Six1-Eya2 inh	gsp ag	CtBP-E1A inh	gsp antag	D2 PAM
CCOc1ccc(CCNC(=O)COC(=O)c2n[nH]c3ccccc23)cc1OCC	-0.4	-2	-200%[inhibitor]	-6	x	0
O=C(NCCN1CCOCC1)c1ccc(CS(=O)c2ccccc2Cl)o1 (stereo not drawn)	-7.2	-1	9%	3	12%	-3
COc1ccc(N2C[C@H](CSC)[C@@H](CC(=O)Nc3ccccc3)C2=O)cc1	-10	-2	-16%	0	x	2
CCCn1c(SCC(=O)Nc2ccccc2-c2ccccc2)nnc1-c1ccoc1C	-2.0	-10	-23%	-6	-19%	2
COc1cc2ccccc2cc1C(=O)N1CCCCC1	-2.0	7	10%[15.4 µM]	-7	4%	-5
Cc1cc(Cl)c(OCCOCCN2CCC(C)CC2)c(Br)c1	-4.4	-4	-57%[inhibitor]	0	21%	-25
Cc1cc(C)n2nc(C(=O)NCc3ccco3)nc2n1	-2.2	7	13%	11	11%	-2
COc1ccccc1N/N=C1\COC(C)(C)CC1=O	-3.6	-19	-6%[15.4 µM]	-22	6%	-4
O=C(Nc1cc(-c2nc3ncccc3o2)ccc1Cl)c1ccc([N+](=O)[O-])o1	1.8	-4	5%	-1	-4%	4
COc1ccc(-n2nc(C(=O)NCCCN3CCCC3=O)c3c4ccccc4n(C)c3c2=O)cc1Cl	-2.1	6	u	x	-13%	-11

New compounds follow
Structure	D2 agonist	Six1-Eya2 inh	gsp ag	CtBP-E1A inh	gsp antag	D2 PAM
CC(C)N(C(=O)COC(=O)c1cc(Cl)cc(Cl)c1N)C(C)C	-2.1	19	-7%	27	-2%	-4
CCc1ccccc1NC(=O)CCC(=O)N1CCSc2ccccc21	2.8	-1	-2%	3	7%	8
O=C(O)c1cc(-c2ccccc2)n(-c2ccc(Cl)cc2Cl)n1	-1.2	4	11%[15.4 µM]	4	-20%	-4
Cc1ccc([N+](=O)[O-])cc1NC(=S)NC(=O)c1cccnc1	-3.1	0	-12%	0	5%	-4
O=C(Nc1c(S(=O)(=O)c2ccccc2)csc1Br)c1ccccc1Cl	-4.8	-4	-10%[15.4 µM]	-20	-10%	-3
CC(C)(C)OC(=O)NCCC(=O)N/N=C/c1cccc2cccnc12	1.0	u	-34%[inhibitor][15.4 µM]	-79*	5%	-9
CCN(c1ccc(NC(=O)COC(=O)CCc2nc3ccccc3n2-c2ccccc2)cc1)C(C)C	-4.4	u	12%[15.4 µM]	u	u	-10
COc1ccc(N(C(=O)c2ccc(S(=O)(=O)N3CCCC3)cc2)C2C=CS(=O)(=O)C2)cc1 (stereo not drawn)	0.2	-2	-47%[inhibitor]	3	5%	-7
O=C(Nc1ccc(OC(F)F)cc1)c1cc(S(=O)(=O)N2CCOCC2)ccc1N1CCCC1	-0.5	1	4%	-3	-3%	-8
COc1ccc(C(=O)c2c(C)c3ccccc3n2CC(O)CNC(C)C)cc1 (stereo not drawn)	-2.6	0	u	-21	-9%	-6

The list continues.
Structure	D2 agonist	Six1-Eya2 inh	gsp ag	CtBP-E1A inh	gsp antag	D2 PAM
CCSC1=N/C(=C\c2cccc(F)c2)C(=O)S1	-6.2	6	-26%	5	-2%	1
Cc1ccccc1NC(=O)CN1CCN(c2ccc(F)cc2)CC1	-3.4	0	-19%	7	x	-19
C=CCOc1ccc(/C=C/C(=O)OCC(=O)N2CCN(S(=O)(=O)c3ccc(C)cc3C)CC2)cc1	7.1	-5	u	x	-2%	2
CC(=O)Nc1ccc(N2Cc3ccccc3C2)cc1	7.3	17	-13%[15.4 µM]	-11	-3%	52*
N#Cc1ccccc1Cn1cc(C#N)c2ccccc21	-1.6	14	-9%	3	-13%	0
Clc1ccc(Nc2ncn[nH]2)c(Cl)c1	-0.7	5	11%[15.4 µM]	18	4%	-6
CCOC(=O)c1c(C)[nH]c(C(=O)COC(=O)C(C)N2C(=O)C3CCCCC3C2=O)c1C (stereo not drawn)	1.4	-5	-6%	-2	u	-12
COc1ccccc1-c1cc(C(=O)NCc2ccc(F)cc2)no1	-1.8	7	u	12	-10%	-23
CCOc1ccc(/C(O)=C2/C(=O)C(=O)N(CCOCCO)C2c2ccc(F)cc2)cc1 (stereo not drawn)	-2.7	-1	u	7	14%	10
CCNC(=O)n1nccc1C(C)Oc1ccc(Cl)cc1 (stereo not drawn)	-1.9	13	1%	20	-20%	-4

Continued.
Structure	D2 agonist	Six1-Eya2 inh	gsp ag	CtBP-E1A inh	gsp antag	D2 PAM
Cc1c(C)n(Cc2ccccc2)c2ncnc(Cl)c12	5.6	6	u	10	-19%	-2
Cc1ccc(OCC(=O)N2CCN(C(=O)c3ccc([N+](=O)[O-])cc3)CC2)cc1	4.1	3	-40%[inhibitor]	x	5%	4
NC(=O)c1ccsc1NC(=O)COC(=O)c1ccccc1NCc1ccco1	-3.7	2	0%	6	3%	1
Cc1ccc2nc3c(cc(C(=O)NC4CCS(=O)(=O)C4)n3Cc3ccccc3)c(=O)n2c1 (stereo not drawn)	0.0	6	29%	7	1%	4
CC(C)C(=O)NC(=S)N1CCc2ccccc21	-4.1	0	26%	-2	11%	-24
COc1ccc(C2CC(C(F)(F)F)n3nc(C(=O)NCCCn4ccnc4)cc3N2)cc1OC (stereo not drawn)	-2.3	-16	u	-1	-3%	-1
CC1(C)CC2(OC2c2ccccc2)C(=O)c2ccccc21 (stereo not drawn)	-3.4	2	-10%	0	x	-5
CC(=O)Cc1nsc(Nc2ccc(F)cc2)n1	-1.8	-10	1%[15.4 µM]	-21	-11%	-4
CCCCc1c(C)c2cc(C)ccc2[nH]c1=O	-1.8	-3	27%	-3	-5%	6
CCOC(=O)CNC(=O)C1(NC(=O)CNC(=O)OCc2ccccc2)CCCC1	-1.4	0	-19%	3	7%	-11
COc1ccccc1CCC(=O)Nc1ccc(S(=O)(=O)Nc2nccs2)cc1	0.4	-9	6%	-9	-3%	21
Cc1cc(O)c(C(C)C)cc1N=Cc1ccccc1O	u	14	7%	x	1%	-14
Cc1sc2nc(SCC(=O)N3CCCC3)[nH]c(=O)c2c1C	-1.5	-8	-4%	-2	-6%	-6

Rows are unselected. Share with any hit: about 1.4%.
